eIF4H FP inh: inhibitors of RNA binding by human eIF4H | Q15056 | eIF4H fluorescence polarization binding assay | inhibition, % at 35 µM | actives 0.94% (n = 290,000);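 active = 50% or more with normal probe brightness, or confirmed in later tests; inconclusive = above 50% with abnormal brightness, or retests that disagree; inactive = below 50% or failed in later tests; about a fifth of its hits are not listed in these tables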;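 note: calls also rest on retests at 20 µM and on dose response follow-up; 0% = protein and probe with vehicle and 100% = probe without protein; strong numbers were not always called active; many hits fall short of the cut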
PABP FP inh: PABP-poly(A) binding inhibition; actives 1% (n = 290,000); PABP-poly(A) RNA binding, fluorescence polarization; inhibition, % at 35 µM; AID 2014;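 active = 50% or more with normal probe brightness, or confirmed in later tests; inconclusive = above 50% with abnormal brightness, or retests that disagree; inactive = below 50% or failed in later tests; about a fifth of its hits are not listed in these tables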;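 note: calls also rest on retests at 20 µM and on dose response follow-up; controls were probe without protein and protein plus probe with vehicle; some compounds called inactive have numbers as strong as hits; many hits fall short of the cut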
Target sequence (P11940 whole entry, looked up): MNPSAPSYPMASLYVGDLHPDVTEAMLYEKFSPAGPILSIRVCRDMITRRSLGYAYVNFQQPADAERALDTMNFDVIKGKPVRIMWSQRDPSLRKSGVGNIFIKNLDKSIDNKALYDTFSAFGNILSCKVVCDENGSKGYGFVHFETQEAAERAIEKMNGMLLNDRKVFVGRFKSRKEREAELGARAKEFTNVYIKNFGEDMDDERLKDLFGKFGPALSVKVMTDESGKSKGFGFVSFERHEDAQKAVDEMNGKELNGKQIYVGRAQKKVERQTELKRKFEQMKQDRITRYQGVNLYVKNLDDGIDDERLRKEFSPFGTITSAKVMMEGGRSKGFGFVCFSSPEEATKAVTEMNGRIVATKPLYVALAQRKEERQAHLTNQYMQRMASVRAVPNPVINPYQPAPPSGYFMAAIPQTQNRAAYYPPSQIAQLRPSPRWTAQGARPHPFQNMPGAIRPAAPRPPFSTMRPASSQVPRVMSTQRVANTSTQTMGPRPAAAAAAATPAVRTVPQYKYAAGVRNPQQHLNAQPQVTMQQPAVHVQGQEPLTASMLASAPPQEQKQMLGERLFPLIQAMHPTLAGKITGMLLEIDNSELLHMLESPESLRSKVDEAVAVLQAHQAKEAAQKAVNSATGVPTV
CSC inhib: cancer stem cell inhibition. cancer stem cell-like cells viability, luminescence. inhibition, % at 7.5 µM. actives 1.1% (n = 300,000);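 active = mean at 75% or more and at least half the replicates too; inconclusive = mean and replicates disagree; tested in HMLE shEcad cells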;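 note: 0% = median of negative and 100% = median of positive control wells; the first replicate is given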
Env fusion inh: HIV envelope-mediated fusion inhibition; HeLa-JRFL Env/CEM21 cell fusion, luciferase; inhibition, % at 12.3 µM; actives 1.1% (n = 360,000); AID 651610;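 active = mean replicate inhibition score of at least 50 and every replicate individually at or above 50; inconclusive = only one of the two criteria met; inactive = mean below 50 and not all replicates reaching 50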;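 note: 0% = plate neutral controls and 100% = maraviroc near 300 nM; one replicate is shown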
Rce1 inh: blocks yeast Ras-converting enzyme | actives 0.27% (n = 290,000) | Q03530 | calls only | yeast membranes, quenched prenylated peptide cleavage fluorescence;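 active = fall in fluorescence gain of 50% or more versus controls, with final raw signal at or below 3038400; inconclusive = same 50% fall but final raw signal above 3038400; inactive = fall in fluorescence gain under 50%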;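 note: plate controls were neutral control wells for no effect and wells lacking membranes for full effect; tested at 10 µM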
Target sequence (Q03530 whole entry, looked up): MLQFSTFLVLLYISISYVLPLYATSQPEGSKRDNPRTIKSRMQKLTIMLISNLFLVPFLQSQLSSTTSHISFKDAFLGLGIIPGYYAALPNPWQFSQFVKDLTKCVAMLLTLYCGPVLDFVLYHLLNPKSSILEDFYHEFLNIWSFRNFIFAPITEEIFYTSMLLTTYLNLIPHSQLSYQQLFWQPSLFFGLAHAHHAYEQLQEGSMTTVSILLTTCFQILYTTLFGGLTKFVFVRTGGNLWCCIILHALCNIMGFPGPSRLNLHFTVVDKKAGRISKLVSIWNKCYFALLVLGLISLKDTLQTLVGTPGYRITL
MT1-MMP act inh: blocks activation of human MT1-MMP | GFP/RFP ratio change, % at 20 µM | actives 0.061% (n = 360,000) | HT1080 RFP-PRO-GFP cells, GFP/RFP ratio fluorescence, overnight; percent of plate control window, DMSO zero | AID 651647 | P50281;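 active = GFP/RFP ratio change of at least 30% with cell ATP level not reduced by more than half and red fluorescence within 50% of control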; note: strong numbers were not always called active
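Compound: 20 µM single dose, 1% DMSO / System: HT1080 RFP-PRO-GFP cells / Controls: DMSO and RFP-L50D-GFP cell wells / Read-out basis: GFP/RFP fluorescence ratio / Schedule: overnight compound exposure at 37 °C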
UUG fidelity: modulators of start codon recognition fidelity in yeast | S. cerevisiae UUG-firefly luciferase reporter, luminescence/redox ratio | activity score, % at 18.7 µM | actives 0.13% (n = 350,000) | AID 602363;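 active = replicate mean at a twofold rise or more, about +100% in these data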;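 note: firefly luciferase made from a UUG start codon reports start codon fidelity; reporter light over untreated wells divided by growth signal over untreated wells; some hits fall short of that in this replicate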
eIF4H FP inh retest: also measured in eIF4H FP inh; calls as there; inhibition, %; compound at 20 µM; confirmation average;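 mean of two retest wells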
PABP FP inh retest: second read-out of PABP FP inh, no call of its own (marks repeat the call); inhibition, %; compound at 20 µM; confirmation repeats;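 mean of two retest wells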
MT1-MMP act inh RFP: second read-out of MT1-MMP act inh, no call of its own (marks repeat the call); RFP signal change, %; measured here: RFP expression control read;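 0 = vehicle wells; hits needed this value within 50% of zero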
Numbers without * were called inactive; i = inactive; ? = inconclusive; · = not tested or not shown; & = joins results of further samples.

SMILES	eIF4H FP inh	PABP FP inh	CSC inhib	Env fusion inh	Rce1 inh	MT1-MMP act inh	MT1-MMP act inh RFP	UUG fidelity	others
CC(=O)Nc1ccc(/C=C/C(=O)c2ccc3c(c2)OCCO3)cc1	-4	-11	19	11	i	-2	1	-3
Cn1c2ccccc2c2nnc(SC3CCOC3=O)nc21 (centres undefined)	-8	-6	-4	-118	i	4	5	-21
CC(C)(O)C#Cc1ccc(CN2CCN(C3CCCC3)C(CCO)C2)cc1 (centres undefined)	0	2	4	-52	i	1	-2	·
CCOC(=O)C1CCCN(S(=O)(=O)c2cccc3nsnc23)C1 (centres undefined)	-9	1	-10	2	i	-3	1	19
Cc1cccc(NC(=O)CSc2nnnn2C)n1	-7	-6	-8	-51	i	8	9	-2
O=C(COc1ccccc1)N/N=C/c1ccc(O[C@@H]2O[C@H](CO)[C@@H](O)[C@H](O)[C@H]2O)cc1	6	3	6	6	i	5	6	·
CCOc1ccc(Cl)cc1-c1cc(C(=O)NCC2CCCCC2)[nH]n1	·	·	·	9	·	-4	-13	-24
Cc1ccsc1CNn1cnnc1SCc1ccccc1F	-7	-12	-8	0	i	-3	-1	-31
O=C(CSc1nnc(CNC(=O)c2c(F)cccc2Cl)o1)NCc1ccc(F)cc1	77	4	15	?	i	3	2	-12	eIF4H FP inh retest=-13;PABP FP inh retest=5
COc1ccc(-c2cc(C(F)(F)F)n3nc(C(=O)N4CCCCC4)cc3n2)cc1OC	-2	3	·	·	i	1	-10	13
Cc1ccc(S(=O)(=O)N2CCC(=O)N(C(COCc3ccc(Cl)cc3)C(C)C)CC2)cc1 (centres undefined)	8	0	21	23	i	-6	-13	-10
CC(=O)c1cccc(NC(=O)C(C)OC(=O)CN2C(=O)NC(C)(C)C2=O)c1 (centres undefined)	·	·	6	1	·	-2	1	-10
O=C1NC(=Nc2ccccc2)SC1(CO)CO	4	8	-4	-5	i	1	4	-17
Cc1nc(NC(=O)c2ccc(Br)o2)sc1C	-4	-7	8	·	i	0	1	-27
COc1ccc(NC(=O)COC(=O)CN2C(=O)NC(C)(C)C2=O)cc1	·	·	·	10	·	0	1	-13
Cc1c(C(c2ccccc2)c2c(C)n(C)n(-c3ccccc3)c2=O)c(=O)n(-c2ccccc2)n1C	2	0	-6	-15	i	-3	-2	8
O=C(/C=C/c1ccc(OC(F)F)cc1)OCC(=O)N1CCC(c2ccccc2)=N1	·	·	5	·	·	-1	-7	-13
CCCS(=O)(=O)N1CCC(C(=O)N2CCOCC2)CC1	-7	-6	4	·	i	1	0	-22
O=c1cc(NCC2CCCO2)[nH]c(=O)n1-c1ccc(Cl)cc1 (centres undefined)	2	-4	-16	·	i	5	2	-9
NS(=O)(=O)c1ccc(CCNCC(=O)NCc2ccccc2Cl)cc1	4	-2	-17	-5	i	5	10	11
CC(C)NC(=O)c1noc2cc([N+](=O)[O-])ccc12	-1	-4	-5	0	i	8	3	-23
CN1C[C@@H]2[C@@H]3C(=O)N(Cc4ccccc4)C(=O)[C@@H]3[C@](Cc3ccccc3)(C1=O)N2C(=O)c1ccc(Cl)c(Cl)c1	·	·	·	34	·	-11	-4	25
NNC(=O)c1cn2ccccc2n1	-7	0	-2	-9	i	-17	-36	-30
CC(C)CCc1noc(CN2CCC(CCN3CCCC3=O)CC2)n1	3	-5	-3	-9	i	2	1	1
O=C(NN=C1CCCC1)c1ccc(Br)cc1	-2	4	-11	-7	i	-4	2	-2
Cc1oc2ccc(O)c(CN3CCOCC3)c2c1C(=O)c1ccc(Cl)cc1	-4	3	4	?	i	-3	-3	1
O=C(NCc1cnc2ccccn12)C1CCC(=O)N(Cc2ccccc2F)C1 (centres undefined)	-3	-10	-4	2	i	-2	0	-21
COc1ccc(N(CC(=O)N2CCOCC2)S(C)(=O)=O)cc1OC	5	-4	-8	11	i	8	7	9
COc1ccc(OCCn2cncn2)cc1	-3	7	-2	-68	i	-2	2	-11
Cc1ccc2nc(-c3ccc(NC(=O)CN(c4ccccc4C)S(C)(=O)=O)cc3)sc2c1	4	-16	64	·	i	-7	-13	·
Nc1nnnn1/N=C\c1ccc(Cl)c([N+](=O)[O-])c1	8	-11	14	-82	i	1	-5	-9
Oc1c(Br)cc(C=Nc2ccc3nc(-c4ccccc4)[nH]c3c2)c(O)c1Br	27	37	13	-11	i	·	·	·
O=C(CCCOc1ccc(Cl)cc1Cl)Nc1cc(S(=O)(=O)N2CCOCC2)ccc1N1CCOCC1	·	·	·	79*	·	11	0	-25
CON(C)c1nc(C2CCCCC2)c2cc(C)ccc2n1	·	·	1	25	i	-1	-3	-6
COc1ccc(CN2CCN(C(C)C)C(CCO)C2)cc1Cn1cncn1 (centres undefined)	-17	-8	5	-74	i	-1	3	-16
CC1Sc2ccc(C#N)cc2N(Cc2cccc(C(F)(F)F)c2)C1=O (centres undefined)	·	·	·	25	·	-9	-15	0
O=C1CCC2=C(CCCC2=O)N1	3	-6	-1	4	i	-1	0	·
CCCCNC(=S)NCCN1CCCCC1	9	13	-6	-12	i	3	6	-26
CC1Sc2ccc(S(=O)(=O)N3CCC(C(=O)NCC(C)c4ccccc4)CC3)cc2NC1=O (centres undefined)	-6	3	6	14	i	2	-11	5
COc1ccc(N(CC(=O)Nc2cccc(N(C)S(C)(=O)=O)c2)S(=O)(=O)c2ccc(C)cc2)cc1	0	3	-5	-7	i	1	7	-6
COc1c(Cl)cc(-c2noc(C)c2C(=O)NC(C)C)cc1Cl	4	-3	-16	-323	i	-1	7	-7
CN(C)S(=O)(=O)c1ccc(NC(=O)c2cc3ccccc3o2)cc1	-5	4	1	-74	i	2	-11	6
CC(=O)c1cccc(OCC(=O)N(C)CC(=O)NCc2ccco2)c1	·	·	-21	·	·	-3	3	-7
CCOC(=O)CC1C(=O)NCCN1C(=O)Nc1ccccc1 (centres undefined)	-8	5	1	·	i	4	1	-17
N#Cc1c(N)nc2c(c1-c1ccncc1)CCCC2	-3	2	-28	-59	i	1	3	-8

Four records picked at random from those above, as already listed:
SMILES	eIF4H FP inh	PABP FP inh	CSC inhib	Env fusion inh	Rce1 inh	MT1-MMP act inh	MT1-MMP act inh RFP	UUG fidelity	others
Cn1c2ccccc2c2nnc(SC3CCOC3=O)nc21 (centres undefined)	-8	-6	-4	-118	i	4	5	-21
CCCCNC(=S)NCCN1CCCCC1	9	13	-6	-12	i	3	6	-26
O=C(NCc1cnc2ccccn12)C1CCC(=O)N(Cc2ccccc2F)C1 (centres undefined)	-3	-10	-4	2	i	-2	0	-21
Cc1cccc(NC(=O)CSc2nnnn2C)n1	-7	-6	-8	-51	i	8	9	-2

New compounds follow:
SMILES	eIF4H FP inh	PABP FP inh	CSC inhib	Env fusion inh	Rce1 inh	MT1-MMP act inh	MT1-MMP act inh RFP	UUG fidelity	others
COc1ccccc1-c1cc(-c2ccccc2)nc(SCC(=O)O)c1C#N	-2	1	11	-12	i	6	-1	-8
CCOc1ccc(NC(=O)CSc2ncn[nH]2)cc1	-2	9	·	-4	i	0	1	-21
CN(C)c1ccc(-c2ccnc3c2CC(C)(C(=O)Nc2ccccc2)O3)cc1 (centres undefined)	·	·	·	6	·	5	3	-16
CC1(C)C(O)=C(c2nc3ccccc3[nH]2)C(=N)N1c1ccccc1	4	-1	-14	24	i	·	·	-29
COc1ccc(N2C(=O)CC(c3ccccc3)CC2=O)cc1	·	·	-1	-16	·	0	4	-16
COCCn1c(-c2ccc(OC)cc2)cnc1N	-2	-6	31	-77	i	14	9	-29
CCOC(=O)c1[nH]c(C)c(C(=O)OCc2ccc(C)cc2)c1C	0	1	-16	-1	i	1	2	-2
N#C/C(=C\c1ccc(-c2cccc([N+](=O)[O-])c2)o1)C(=O)N1CCOCC1	-6	0	-13	0	i	-7	-10	·
CCOc1ccccc1NC(=S)Nc1ccc(S(N)(=O)=O)cc1	4	-7	-1	1	i	1	5	·
O=C(CN(C(=O)c1csnn1)c1cccc(C(F)(F)F)c1)NC1CCCC1	6	1	0	5	i	-1	0	-7
CCc1ccccc1NC(=O)NC1CC2CCC(C1)N2Cc1cccs1 (centres undefined)	-14	-6	·	·	i	6	5	-13
Cc1ccc(-c2ccc(CN3C(C)C(=O)N(Cc4cn(CCC5OCCO5)nn4)CCS3(=O)=O)cc2)cc1 (centres undefined)	·	·	·	-5	·	3	-2	1
C[C@H]1CN([C@@H](C)CO)C(=O)CCCn2nncc2CO[C@H]1CN(C)S(=O)(=O)c1ccc(Cl)cc1	·	·	·	-9	·	0	0	-4&26&0
Cc1cc(NC(=O)CSc2nc3ccccc3[nH]2)n(-c2ccccc2)n1	-7	6	2	0	i	6	-3	-9
CC(=O)NCCc1nc2ccccc2n1Cc1ccc(Cl)cc1	0	0	-11	-90	i	-3	3	·
O=C(Nc1ccccc1)C1CC(=O)n2c(nc3ccccc32)N1 (centres undefined)	5	-1	-18	-3	i	5	2	·
Cc1ccc(CNC(=O)/C(C#N)=C/c2ccc(C)s2)cc1	3	-2	-9	-34	i	1	3	-7
CCS(=O)(=O)N1Cc2ccccc2CC1C(=O)Nc1cc(S(C)(=O)=O)ccc1Cl (centres undefined)	36	3	-11	-11	i	-3	-2	7
CC(C)=CC1C(C(=O)NCCOc2ccccc2)C1(C)C (centres undefined)	2	13	-6	9	i	1	-6	11
Cc1ccc(S(=O)(=O)NCC2CCC(C(=O)NCCCN3CCC(C)CC3)CC2)cc1 (centres undefined)	·	·	·	6	·	5	-3	-3
CC(NS(=O)(=O)c1cn(C)c(=O)n(C)c1=O)c1ccccc1 (centres undefined)	-4	-6	-3	-1	i	0	4	-21
CCCN1CCN(C(=O)C2CCN(S(=O)(=O)c3ccc4c(c3)oc(=O)n4C)CC2)CC1	-3	-5	·	-16	·	0	0	-13
Cc1cc(C)n(CC(=O)NNC(=O)COc2ccc(Br)cc2F)n1	·	·	-17	·	·	2	5	-15
CCOC(=O)NC1(C(F)(F)F)C(=O)NC(C)=C1C#N (centres undefined)	7	-4	-19	·	i	6	7	-19
CCCC(=O)Nc1ccc(NC(=O)c2ccccc2)nc1	-6	8	1	-19	i	-2	-1	-45
COCCN(C(=O)c1cc(-c2ccccc2Cl)nc2ccccc12)c1c(N)n(CC(C)C)c(=O)[nH]c1=O	·	·	·	7	·	-1	2	-9
CC(=O)Nc1ccc(S(=O)(=O)NCCC(=O)NCCCc2ccccc2)cc1	·	·	-10	5	·	6	0	-3
Cc1c(NC(=O)CN2CC(C)OC(C)C2)c(=O)n(-c2ccccc2)n1C (centres undefined)	0	13	-4	-1	·	-1&-2	1&-3	6&3
CCOCCCNC(=O)C(c1ccc(Cl)cc1)N1CCN(C(=O)c2ccco2)CC1 (centres undefined)	-5	-2	-11	-1	i	-3	1	-3
CN(C(=O)CSc1nnnn1-c1ccccc1)C1CCCCC1	9	1	·	·	i	4	9	16
Cc1ccccc1NC(=S)NNC(=O)c1cccc(Br)c1	9	6	-5	9	i	1	-2	·
CCCC(=O)NC(=S)Nc1nc(-c2ccc(OC)cc2)cs1	-11	-3	-10	·	i	4	3	-23
O=C(Nc1ccc(Oc2ccccc2)nc1)C1CCCCN1Cc1cccc(O)c1 (centres undefined)	-13	6	-2	-25	i	4	1	5
O=C(CNC(=O)N1CC(=O)Nc2ccccc21)Nc1nccs1	-7	-1	-5	0	i	-6	4	-16

An excerpt (hit frequency here may not be typical).
